# Screening results (PubChem)
# FGF22 binding = binders of human FGF22 protein, primary screen, FGF22 synaptogenesis inhibitor project, biophysical, thermal shift, single point. hit rate 1.5% among 340,000. Fibroblast growth factor 22 (Homo sapiens), Q9HCT0. calls only at 9.99 µM. recombinant FGF22 thermal shift, SYPRO orange fluorescence; percent of sucrose octasulfate shift, DMSO zero;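 active means melting point raised past a set limit in the mean and every replicate; inconclusive means no clear call; three in four hits are not shown here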
# Target sequence (Q9HCT0 whole entry, looked up): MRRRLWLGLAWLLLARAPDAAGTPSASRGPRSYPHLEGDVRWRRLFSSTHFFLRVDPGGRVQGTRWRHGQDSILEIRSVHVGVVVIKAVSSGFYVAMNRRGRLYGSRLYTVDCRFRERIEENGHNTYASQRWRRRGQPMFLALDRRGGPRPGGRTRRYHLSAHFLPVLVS
# ALR H2O2 inh = inhibitors of human ALR sulfhydryl oxidase, primary screen, biochemical, H2O2 detection, HRP-luminol luminescence, single point; FAD-linked sulfhydryl oxidase ALR (Homo sapiens), P55789; purified ALR, DTT oxidation; inhibition, % (no concentration beside the values); hit rate 3.8% among 290,000;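 active means mean and each replicate at 75% or more; inconclusive means only one of the two met; inactive means neither met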;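 further: stock transfer was 7.5 nL into about 7.5 µL; 0% = neutral wells and 100% = wells with inactivated enzyme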
# Target sequence (P55789 whole entry, looked up): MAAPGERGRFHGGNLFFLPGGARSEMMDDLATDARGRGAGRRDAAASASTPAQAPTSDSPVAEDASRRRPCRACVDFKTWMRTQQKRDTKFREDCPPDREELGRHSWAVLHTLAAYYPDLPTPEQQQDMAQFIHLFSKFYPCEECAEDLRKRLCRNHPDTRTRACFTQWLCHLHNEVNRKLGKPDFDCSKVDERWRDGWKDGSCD
# Ecoli rRNA inh = reduced GFP signal of wild-type E. coli, primary screen, bacterial rRNA inhibitor project, GFP/RFP fluorescence, OD600, single point; hit rate 1.6% among 350,000; E. coli WT GFP vs humanized-ribosome RFP mutants, 24 h; hits give low values; DMSO median 0, no signal -100; GFP signal change (wild-type ribosome), % (no concentration beside the values); AID 720706, 2013;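 active means significant combined selectivity score with lowered wild-type GFP, culture density cut under 30%, mutant RFP and density less affected; inactive means any of these conditions unmet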; further: one replicate is shown; some compounds called inactive have numbers as strong as hits
# HNF4A DNA FP = change in binding of human HNF4A to DNA, primary screen, biochemical, fluorescence polarization, FITC-DNA; Hepatocyte nuclear factor 4-alpha (Homo sapiens), P41235; 1 h; AID 1224865, 2016; activity change, % at 10 µM; hit rate 0.3% among 360,000; in the data active means activity change above about 30%, passing the limit was not always enough;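 further: controls were the assay level and a saturating level of protein; the project sought stronger binding though the title names inhibitors; some compounds called inactive have numbers as strong as hits; positive values seem to mean higher polarization but the record does not say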
# Target sequence (P41235 whole entry, looked up): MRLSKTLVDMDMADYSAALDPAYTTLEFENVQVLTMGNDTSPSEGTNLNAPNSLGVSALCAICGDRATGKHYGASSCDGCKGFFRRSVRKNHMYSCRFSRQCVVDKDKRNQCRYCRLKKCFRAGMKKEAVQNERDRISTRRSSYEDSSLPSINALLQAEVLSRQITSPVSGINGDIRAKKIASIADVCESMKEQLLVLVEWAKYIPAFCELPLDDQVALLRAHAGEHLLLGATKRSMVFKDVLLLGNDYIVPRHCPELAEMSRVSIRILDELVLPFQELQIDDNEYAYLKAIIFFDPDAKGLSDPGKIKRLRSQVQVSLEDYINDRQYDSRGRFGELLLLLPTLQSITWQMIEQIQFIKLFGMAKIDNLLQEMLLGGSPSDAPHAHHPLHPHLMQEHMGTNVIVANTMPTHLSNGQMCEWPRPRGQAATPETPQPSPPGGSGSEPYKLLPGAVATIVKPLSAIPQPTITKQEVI
# MLL AF4-AF9 inh = inhibitors of AF4 peptide binding to AF9, primary screen, biochemical, AlphaScreen, biotin-AF4 peptide, FLAG-AF9, single point. Protein AF-9 (Homo sapiens), P42568. inhibition, % at 10 µM. hit rate 0.47% among 350,000;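 active means every replicate reaching a set inhibition limit, whatever the replicate mean, cut at about 25% in these data; inconclusive means mean inhibition reaches that limit but some replicates miss it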;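 further: 0% = plate neutral control median and 100% = total signal loss; the record names both 10 and 1 µM as test concentration; the first replicate is given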
# Vif TR-FRET = inhibitors of Vif binding to APOBEC3G peptide, primary screen, biochemical, TR-FRET, GST-Vif 1-94, biotin-A3G peptide, dose response retest (AID 1117319); hit rate 0.57% among 260,000; Virion infectivity factor (Human immunodeficiency virus type 1 group M subtype B (isolate …; inhibition, %, or IC50 in µM where a hit was titrated; TR-FRET GST-Vif / biotin-A3G peptide binding; higher % means a stronger effect; test concentration not given here; strong numbers were not always called active;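 active means above the screen mean plus three standard deviations and confirmed in dose response; inconclusive means results disagree or hit not tested in dose response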;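 further: Vif residues 1-94 fused to GST binding biotinylated APOBEC3G peptide 110-148; 0% = full assay without inhibitor and 100% = GST in place of GST-Vif; retest series ran down from 100 µM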
# Ecoli growth = E. coli growth inhibition, primary screen, OD600 | Escherichia coli growth, 23 h; hits give low values | OD600 absorbance (no concentration beside the values) | hit rate 0.21% among 330,000 | AID 1053175, 2014;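 active means OD600 absorbance below the run mean of sample wells minus 3.6 SD, in any replicate, cut at about 0.56 in these data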;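 further: stock transfer was 300 nL into about 60 µL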
# Ecoli rRNA inh OD600 = second read-out of Ecoli rRNA inh, no call of its own (marks repeat the call); OD600 change, %; measured here: OD600 growth;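 optical density of the mix in the first replicate; 0 = DMSO median and -100 = no signal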
# Ecoli rRNA inh RFP = further read-out of Ecoli rRNA inh, marked with its call; RFP signal change, %; measured here: RFP humanized mutant strains;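 first replicate; 0 = DMSO median and -100 = no signal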
# * marks the source's active call; other numbers are inactive results; i = inactive; ? = inconclusive; . = no result given. These rows are one share of the data; rates above refer to the full screens.
SMILES,FGF22 binding,ALR H2O2 inh,Ecoli rRNA inh,Ecoli rRNA inh OD600,Ecoli rRNA inh RFP,HNF4A DNA FP,MLL AF4-AF9 inh,Vif TR-FRET,Ecoli growth
N#C[C@@H]1[C@H](c2ccc(C3=CCCC3)cc2)[C@H](CO)N1C(=O)C1CCOCC1,i,.,3.8,3.5,-1.9,.,-2.4,.,.
O=C1C2CC=C(Cl)CC2C(=O)N1CCc1ccccc1 (stereo not drawn),.,-0.8,.,.,.,-6.6,.,?,0.634
O=C(COc1ccc(Cl)cc1)NC(=S)Nc1ccccc1N1CCOCC1,i,-1.6,-9.7,-9.4,-2.7,6.2,-0.2,.,0.703
C[C@H]1COc2cccc(N(C)CCO)c2S(=O)(=O)N1,i,.,12.7,-0.5,1.1,0.5,-3.3,.,.
COc1cc(C(=O)OCC(=O)Nc2ccc(S(=O)(=O)NC3=NCCCCC3)cc2)cc(OC)c1OC,i,-1.4,6.0,4.1,3.3,3.5,-2.9,.,.
CN(C)C(CNC(=O)C1CCN(S(=O)(=O)c2ccc(Cl)cc2)CC1)c1ccccc1 (stereo not drawn),i,-3.5,3.3,8.7,0.6,-1.2,1.3,2.7%,0.684
Cc1ccccc1CC1(CO)CCCN(C(=O)CCC(F)(F)F)C1 (stereo not drawn),i,.,7.4,4.2,1.6,1.4,-2.0,.,0.691
CN(C)c1ccc(C(=O)NNC(=O)Nc2ccccc2)cc1,i,19.6,-2.9,-7.6,0.7,0.1,-1.5,.,0.678
CCC(=O)N1C[C@H](O)COC[C@@H]2O[C@H](CC(=O)N3CCCCC3)CC[C@H]21,i,.,6.1,6.8,2.2,.,-4.7,.,.
CC(Cc1ccccc1)NC(=O)/C=C/c1ccc([N+](=O)[O-])cc1 (stereo not drawn),.,-4.6,.,.,.,1.3,.,4.7%,0.628
COc1ccc(S(=O)(=O)Nc2ccc3c(c2)C(=O)N([C@H](C)CO)C[C@@H](C)[C@@H](CN(C)S(=O)(=O)c2c(C)noc2C)O3)cc1,i,.,0.4,-1.3,0.8,.,-2.8,.,.
O=C(NCC[C@H]1CC[C@@H](NC(=O)C2CC2)[C@H](CO)O1)c1ccc(F)cc1,i,.,2.6,6.1,-0.3,.,-2.8,.,.
CCOC(=O)c1cc2c(ccn2C)n1CC(=O)N1C(C)CCCC1C (stereo not drawn),i,2.1,10.0,7.0,3.9,2.8,1.5,6.6%,0.688
CCCCn1nc(C(=O)NC2=NCCS2)c2ccccc2c1=O,.,-7.4,-5.3,2.1,-7.0,5.6,.,0.0%,0.74
CCCCNC(=O)CCC(=O)Nc1ccc2nc(N3CCCCC3)cc(C)c2c1,i,.,-4.8,-1.1,-0.1,0.5,-3.6,-2.1%,0.708
C[C@H](CO)N1C[C@H](C)[C@H](CN(C)Cc2ccncc2)Oc2ncc(C3=CCCCC3)cc2C1=O,i,.,-2.9,-1.8,-3.2,.,-0.8,.,.
Cc1[nH]c(C)c(S(=O)(=O)Nc2ccccc2)c1C(=O)N1CCCC1,i,-9.5,15.0,6.0,-2.1,3.5,0.0,-5.0%,0.67
Cc1noc(C)c1NC(=O)Nc1ccc2c(c1)C(=O)N([C@H](C)CO)C[C@@H](C)[C@H](CN(C)C(=O)Nc1ccc(F)cc1)O2,i,.,0.6,2.6,0.2,.,10.6,.,.
Cc1cccc(NC(=O)Cn2cc(C(=O)C3CC3)c3ccccc32)c1,i,0.6,6.1,11.9,-1.4,-0.5,1.0,.,0.672
O=c1oc2ccccc2c(NC2CCCCC2)c1NS(=O)(=O)c1ccc(F)c(Cl)c1,i,11.2,3.1,18.7,2.3,4.0,-0.8,-4.6%,0.693
O=C(COC(=O)[C@H](Cc1ccccc1)NC(=O)c1ccco1)NCc1ccccc1,.,10.7,.,.,.,1.9,.,-0.2%,0.741
COc1cccc(-n2cnc3sc(C)cc3c2=O)c1,.,3.5,5.9,13.2,-1.1,5.0,-3.6,5.4%,0.653
Cc1nnsc1S(=O)c1ccc(Br)cc1 (stereo not drawn),i,.,-0.2,0.9,-8.3,1.3,-2.5,-1.4%,0.64
C[C@H](NC(=O)C[C@@H]1CC[C@@H]2[C@H](COC[C@H](O)CN2Cc2ccc(C(F)(F)F)cc2)O1)c1ccccc1,i,.,i,.,.,.,-0.5,.,.
C[C@H](NC(=O)c1nc[nH]c1C(=O)N[C@@H](CCCCNC(=O)OC(C)(C)C)C(=O)OC(C)(C)C)C(=O)OCc1ccccc1,i,.,16.2,5.7,10.5,3.2,-14.4,.,.
COc1ccc(CN2CCCCC2C(=O)Nc2ccc(OC)c(OC)c2)cc1OC (stereo not drawn),i,-5.7,4.9,-9.5,0.7,-3.2,-17.7,-3.7%,0.654
O=C(COC(=O)[C@@H]1CCCN1S(=O)(=O)c1ccc(Cl)cc1)NC1CC1,i,-4.9,4.0,10.5,3.2,-2.9,-1.2,-11.6%,0.712
O=C(CCn1c(=O)sc2ccccc21)Nc1nccs1,.,-11.6,.,.,.,2.1,.,0.7%,0.678
O=C(CCNC(=O)c1ccc(Cl)cc1)NN1C(=O)NC2(CCCCC2)C1=O,i,-0.3,.,.,.,-0.1,-0.7,-2.6%,0.689
CNC(=O)c1[nH]cnc1C(=O)NCC(=O)OC(C)(C)C,i,.,6.7,10.7,-12.9,0.8,-4.5,.,0.675
Cc1ccc(C2N(c3cccc(Cl)c3)C(=O)C3CCCN32)o1 (stereo not drawn),i,.,1.5,6.2,-0.1,0.0,-6.0,3.4%,0.723
CC(C)n1c(CNC(=O)c2ccccc2)nc2ccccc21,.,-0.5,.,.,.,3.4,.,1.3%,0.708
O=C1CC(c2ccccc2)n2nc(NC(=O)c3cccs3)nc2N1 (stereo not drawn),.,-0.7,.,.,.,-0.7,.,-2.6%,0.669
CC(C)C#Cc1cnc2c(c1)C(=O)N([C@@H](C)CO)C[C@H](C)[C@H](CN(C)C(=O)c1ccc3c(c1)OCO3)O2,i,.,8.7,24.9,0.5,.,-3.8,.,.
O=C(NCc1cccc(C(F)(F)F)c1)c1cc(-c2ccccc2)nn1CC1CC(c2cccnc2)=NO1 (stereo not drawn),i,-4.4,-16.1,-14.6,7.0,4.4,2.0,.,0.676
O=C(c1cccs1)N1CCN(c2nnc(-c3ccccc3)c3ccccc23)CC1,i,-3.5,-28.1*,-20.5*,-6.9*,-2.5,-1.6,-15.8%,0.67
COc1cccc(C(=O)Nc2ccc(NC(=O)C3CC3)cn2)c1,.,-3.3,.,.,.,2.6,.,10.7%,0.657
Cc1ccc(NC2CCCN(C(=O)c3ccc(F)cc3)C2)cc1C (stereo not drawn),i,90.1*,-8.4,-13.5,-1.2,2.0,4.8,.,0.632
COc1ccc(/C=C2\Cc3ccccc3C2=O)cc1OC,i,18.5,5.1,2.8,0.0,-2.0,3.4,-3.0%,0.649
CN(C)C(=O)C[C@H]1CC[C@@H](NC(=O)Nc2cccc(F)c2)[C@@H](CO)O1,i,.,-1.5,11.1,-0.2,.,-2.2,.,.
O=C(O)COc1ccccc1/C=N/NC(=O)CSc1nc2ccccc2n1Cc1ccccc1Cl,i,14.3,-7.2,-6.9,0.1,-9.2,-3.9,-0.2%,.
COc1ccccc1C1C(C#N)=C(N)Oc2c1oc(CO)cc2=O (stereo not drawn),i,2.6,9.2,8.2,2.8,1.9,0.6,.,0.693
OC(c1ccc(Cl)cc1)C(CN1CCOCC1)c1ccccc1 (stereo not drawn),i,-8.9,4.5,6.8,0.7,-0.6,1.3,2.4%,0.689
C[C@H]1CN([C@@H](C)CO)C(=O)c2ccccc2-c2ccccc2CO[C@H]1CN(C)C(=O)c1ccc(F)cc1,i,.,-1.6,-5.1,-3.3,.,-2.2,.,.
COc1ccc(-c2noc(C(C)NC(=O)c3ccco3)n2)cc1OC (stereo not drawn),i,.,2.6,-2.6,-1.2,-4.9,-6.0,.,0.651
O=C(CCS(=O)(=O)c1ccc(Br)cc1)NCCc1ccccc1,i,-1.5,-1.4,-30.6,3.6,-19.6,-3.5,28.9µM*,0.667
CCOc1ccc(C(C)C)cc1S(=O)(=O)Nc1ccc(Cl)cn1,.,-12.0,.,.,.,-9.0,.,?,0.775
COC(=O)[C@]12CCCCC=C1N(Cc1ccc3c(c1)OCO3)C(=O)[C@H](CC(=O)NCCC(C)C)C2,i,.,-16.6,-42.4,-0.9,3.5,1.4,.,.
C[C@H]1CN([C@@H](C)CO)C(=O)Cc2cc(NC(=O)Cc3cn(C)c4ccccc34)ccc2O[C@@H]1CN(C)S(=O)(=O)c1ccccc1,i,.,-2.4,2.7,-1.0,.,-1.2,.,.
COc1ccc(CNC2CCCCC2C)c(OC)c1 (stereo not drawn),i,-7.3,12.4,2.4,-1.2,-2.8,1.9,0.7%,0.792
CCc1nc2c(OCc3ccccc3C(=O)OC)cccn2c1N(C)C(=O)c1cccs1,i,.,-10.2,-30.0,-2.4,-0.3,3.7,.,.
COCC(=O)N(C)C[C@@H]1Oc2cc(C#CCC3CCCC3)ccc2S(=O)(=O)N([C@@H](C)CO)C[C@@H]1C,i,.,-13.3,-44.8,17.1,.,6.1,.,.
CC1(C)C2CCC1(C)C(OC(=O)C[n+]1ccccc1N)C2 (stereo not drawn),i,.,7.4,2.2,-2.2,5.6,-6.6,6.1%,0.698
O=C(NCc1ccccc1F)C1CCCN1C(=O)Nc1ccccc1 (stereo not drawn),i,-6.0,11.4,3.9,-2.9,-4.9,-2.1,.,0.677
O=C(O)CC1(O)C(=O)N(Cc2ccccc2)c2ccccc21 (stereo not drawn),i,-6.2,4.4,5.6,0.4,-1.3,-1.9,.,0.657
CCc1nnc(NC(=O)CCC(=O)NCc2ccc(C)cc2)s1,i,-1.0,10.2,9.0,-0.2,-2.9,2.3,.,0.636
Cc1nc(C)c(-c2ccc(SCc3ccc([N+](=O)[O-])cc3)nn2)s1,i,-16.3,1.3,8.1,-3.7,-3.7,-0.1,.,0.617
Cc1ccc(C(=O)Nc2cccc(S(=O)(=O)N3CCCC3)c2)o1,i,-1.9,-1.3,-0.8,-0.9,-2.1,4.9,.,0.672
CCOC(=O)C1(C)CCCN(C(=O)c2cc(F)cc(F)c2)C1 (stereo not drawn),i,.,14.6,7.0,1.1,-1.8,1.6,.,.
CC(C)C(=O)Nc1ccc(NC(=O)c2ccccn2)cn1,.,15.4,.,.,.,0.5,.,2.6%,0.66
Cc1ccc(C(=O)NCc2ccc(Cl)cc2)cc1S(=O)(=O)N1CCCCC1,i,.,-3.4,7.6,-2.4,-6.4,0.8,-3.6%,0.627
CCN(C[C@@H]1[C@@H](c2ccccc2)[C@H](CO)N1CC1CC1)C(=O)c1cccc(F)c1,i,.,-2.6,-0.8,-2.0,.,-1.0,.,.
